gsp agonist: activates gsp, the McCune-Albright syndrome mutation | gsp mutant cells, cAMP HTRF, 30 min; control for the full effect not named in the record | Potency, µM (top dose mostly 76.9 µM), without a hit: at the highest dose activation (cAMP increase), hits mostly activators | actives 0.13% (n = 340,000); active = well fitted activation curve with a large enough effect; inconclusive = small, poorly fitted or top-dose-only effect, or another doubt; inactive = no such curve, though single readings can be large or run the other way; cell line not stated here;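 also: phosphodiesterase inhibitor Ro 20-1724 added with compounds to block cAMP breakdown; potency is read from the fitted curve at half-maximal effect; nearly all actives have a fitted effect of over 60% in size; about a fifth of the inactives were tested at one dose only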
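Cells stably selected in G418 were plated at 2000/well, grown 16-24 hr, then given compounds in DMSO with the PDE inhibitor […] (300 uM solution added) for 30 min at 37C; cAMP was read by HTRF.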
ClpP mod: qHTS Assay for Activators of ClpP | purified B. subtilis ClpP, FRET peptide cleavage, 20 min | actives 1.9% (n = 340,000) | Potency, µM (highest dose often 57.5 µM), for inactives: at the top dose activity change, negative = active; active = well fitted falling curve with a large enough effect; inconclusive = small, poorly fitted or top-dose-only effect; inactive = no such curve, though single readings can be large or run the other way; also: potency is read from the fitted curve at half-maximal effect; the source files actives as falling curves though it sought activators and does not explain the sign; nearly all actives have a fitted effect of over 65% in size; many hits overshoot -100%
Target sequence (P80244 whole entry, looked up): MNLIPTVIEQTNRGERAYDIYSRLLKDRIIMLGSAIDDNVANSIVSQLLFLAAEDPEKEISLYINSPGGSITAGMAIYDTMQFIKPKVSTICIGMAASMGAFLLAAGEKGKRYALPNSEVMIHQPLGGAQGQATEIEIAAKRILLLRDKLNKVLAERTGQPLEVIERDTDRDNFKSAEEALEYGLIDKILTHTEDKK
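Buffer: 100 mM Tris/HCl pH8, 100 mM KCl, 0.05% low protease BSA, 2.5% glycerol, 0.01% Tween-20. ClpP 10 microg/mL final; 20 min RT; delta FRET normalized to ADEP and DMSO controls.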
D2 PAM: human D2 receptor positive allosteric modulation; P14416; DiscoveRx D2 beta-arrestin cells, luminescence, 90 min; 100% = 57 uM dopamine signal; potentiation, % (test concentration not listed); actives 0.23% (n = 360,000); active = potentiation of 50% or more; inconclusive = 30% to 50%; inactive = 30% or less;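 also: compound concentration not given in the record; tested on top of an EC20 dose of dopamine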
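PathHunter D2 cells, attached overnight at 37 deg C, received compound in DMSO plus dopamine at EC20 (50 nM final) for 90 min at 37 deg C. Beta-arrestin recruitment was read as luminescence after 1 h with detection reagent at ambient temperature.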
Menin MLL FP FL: menin-MLL binding inhibition, fluorescein peptide; AID 1766; FP activity change, % at 61.4 µM; 290,000 tested, under 10 active; Fluorescence polarization, fluorescein-MLL peptide displacement from menin; inconclusive = falling polarisation curve, or a change in total fluorescence; inactive = total fluorescence flat and polarisation flat or rising; no compound was filed as active; the % refers to the polarisation; negative = inhibition;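 also: % of control where 0% means no effect; inhibitors lower the polarisation; unlabelled MLL peptide was the positive control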
Sfp inh: Sfp phosphopantetheinyl transferase inhibition; Biochemical Sfp PPTase activity, qHTS; Potency, µM, for inactives: max response, negative = inhibition, hits mostly inhibitors; actives 3.5% (n = 310,000); active = well fitted inhibition curve with a large enough effect; inconclusive = small, poorly fitted or top-dose-only effect, or another doubt; inactive = no such curve, though single readings can be large or run the other way;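 also: the enzyme is Sfp with the accession as filed and its product quenches rhodamine fluorescence; potency is read from the fitted curve at half-maximal effect; 0% = enzyme reaction without inhibitor and -100% = no enzyme wells; top concentration of the series not given in the record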
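Reaction rates are the 30-min fluorescence difference (ex 525, em 598 nm) in wells containing 15 nM Sfp, 5 uM rhodamine-CoA and 12.5 uM BHQ-2-YbbR at pH 7.6 with 10 mM MgCl2.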
TRPV1 PAM: human TRPV1 potentiation; Q8NER1; actives 0.02% (n = 320,000); potentiation, % at 8.33 µM; TRPV1-expressing cells, Fluo-8 calcium influx, capsaicin EC20 potentiation; host cell line not named in the record; control for the full effect not named in the record; active means potentiation above 80%; inconclusive means 30% to 80%; inactive means below 30%; also: 0% is about no effect
Target sequence (Q8NER1 whole entry, looked up): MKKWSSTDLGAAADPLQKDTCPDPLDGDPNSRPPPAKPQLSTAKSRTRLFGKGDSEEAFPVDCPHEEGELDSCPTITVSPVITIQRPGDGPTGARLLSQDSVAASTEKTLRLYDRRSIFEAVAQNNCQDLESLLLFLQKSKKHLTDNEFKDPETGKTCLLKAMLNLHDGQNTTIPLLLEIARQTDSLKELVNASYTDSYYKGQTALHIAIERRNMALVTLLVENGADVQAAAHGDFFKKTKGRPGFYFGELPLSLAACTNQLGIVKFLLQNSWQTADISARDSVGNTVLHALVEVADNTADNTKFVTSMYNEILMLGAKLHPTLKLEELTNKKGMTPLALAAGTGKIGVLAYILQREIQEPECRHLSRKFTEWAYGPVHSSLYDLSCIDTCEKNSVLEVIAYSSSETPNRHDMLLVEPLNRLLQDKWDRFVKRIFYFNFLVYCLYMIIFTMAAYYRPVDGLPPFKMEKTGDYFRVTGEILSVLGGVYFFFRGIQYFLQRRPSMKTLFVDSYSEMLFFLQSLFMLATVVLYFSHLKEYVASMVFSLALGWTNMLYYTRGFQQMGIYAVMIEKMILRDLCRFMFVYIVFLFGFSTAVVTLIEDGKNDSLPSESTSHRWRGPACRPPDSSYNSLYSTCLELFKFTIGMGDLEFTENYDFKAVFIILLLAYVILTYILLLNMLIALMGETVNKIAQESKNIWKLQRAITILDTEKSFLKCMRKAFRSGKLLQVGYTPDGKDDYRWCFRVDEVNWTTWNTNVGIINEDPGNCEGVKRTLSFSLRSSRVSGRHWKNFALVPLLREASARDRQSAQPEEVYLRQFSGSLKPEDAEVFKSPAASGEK
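TRPV1-expressing cells were cultured overnight at 35.5C and loaded with Fluo-8 calcium dye for 40 to 90 min at room temperature. After a 10 s baseline, compound was added and calcium influx was read kinetically for 3 min (ex 480/em 520 nm).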
gsp antagonist: antagonists of gsp mutant (McCune-Albright syndrome); gsp-mutant cells, cAMP HTRF, 30 min; control for the full effect not named in the record; Potency, µM (top dose mostly 76.9 µM), inactives show at the highest dose activity change, negative = inhibition, actives largely listed as inhibitors; actives 0.4% (n = 340,000); AID 624288; active = falling curve of any shape with a large fitted effect; inconclusive = falling curve, mostly with a smaller effect; inactive = flat or rising curve; cell line not stated here;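 also: intracellular cAMP measured with PDE inhibitor Ro 20-1724 present during compound exposure; potency is read from the fitted curve at half-maximal effect; % is scaled to controls: 0 for no effect and ±100 for the full control effect; nearly all actives have a fitted effect of over 65% in size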
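G418-selected cells were plated in DMEM/10% FBS for 16-24 h at 37C, then treated with compounds plus the PDE inhibitor […] (300 uM solution added) for 30 min at 37C. Intracellular cAMP was measured by HTRF after 30 min lysis at room temperature.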
Active calls of the source: *; ? = inconclusive; · = not tested or not shown; & = joins results of further samples; ! = not active in a repeat; [ ] = dose if it differs, or a comment.

SMILES	gsp agonist	ClpP mod	D2 PAM	Menin MLL FP FL	Sfp inh	TRPV1 PAM	gsp antagonist
Cc1ccc2nc(-c3ccco3)c(Nc3ccccc3)n2c1	?	3.2µM*!	10	-0.9	7%	-7	-6%
N#Cc1ccccc1CN1C(=O)NC2(CCCCCC2)C1=O	?	-1.7%	-12	-6.5	1%	-18	-1%
CN(CCOc1ccc(Cl)cc1)CC(O)c1ccccc1 (stereo not given)	-6%	·	-17	·	-19%	7	9%
OC(COCc1ccc2c(c1)OCO2)CN1CCCCC1 (stereo not given)	-40%[inhibitor]	2.4%	-5	-0.2	2%	7	6%
CCc1ccc(C(=O)CSc2nc(N)cc(=O)[nH]2)cc1	-41%[inhibitor]	·	-3	1.0	4%	0	-7%
COc1cc(NC(=O)c2sc3ncn(CC(=O)N4CCCC(C)C4)c(=O)c3c2C)cc(OC)c1OC (stereo not given)	-8%	1.4%	1	·	19%	11	?
O=C(CCNC(=O)c1ccc(Br)cc1)Nc1cccc(S(=O)(=O)N2CCCCCC2)c1	5%	-0.7%	-20	·	·	10	?
Cc1cc(C)c(NC(=O)c2sc3nc(C)[nH]c(=O)c3c2C)c(C)c1	·	·	·	-2.3	-20%	5	·
O=C(Nc1ccccc1)Nc1ncc(C(F)(F)F)cc1Cl	-46%[inhibitor]	-4.2%	-20	·	·	·	·
O=C(CC1(O)C(=O)Nc2cc(Cl)cc(Cl)c21)c1ccncc1 (stereo not given)	-7%	0.5%	-37	3.2	5%	-22	-8%
COc1ccc(C(=O)CSc2[nH]c(=O)cc(C(F)(F)F)c2C#N)cc1	-28%[15.4 µM]	·	-7	5.1	-25%	·	-17%
CCOc1ccc(-c2cn3ccccc3n2)cc1	-7%[15.4 µM]	·	-11	2.2	2%	2	7%
CCOc1ccccc1N=c1oc2cc(O)ccc2cc1C(=O)NCC1CCCO1 (stereo not given)	?	43%	-9	?	4%	-15	-9%
Cc1ccc2nc(N(CCN(C)C)C(=O)C3=COCCO3)sc2c1	-43%[inhibitor]	-0.1%	-18	·	6%	-1	13%
CCOc1ccc(S(=O)(=O)NC(C)(C)C)cc1-c1nc2c(C(C)(C)C)nn(C)c2c(=O)[nH]1	-51%[inhibitor]	-3.0%	-21	3.4	-8%	1	10%

(listing goes on)
SMILES	gsp agonist	ClpP mod	D2 PAM	Menin MLL FP FL	Sfp inh	TRPV1 PAM	gsp antagonist
COc1ccccc1CNC(=O)Cn1cccc1C(=O)c1ccccc1	0%	-2.6%	-10	-0.2	-2%	-13	0%
Cc1cc(C)nc(NS(=O)(=O)c2ccc(N3C(=O)C4CCCCC4C3=O)cc2)n1 (stereo not given)	2%	·	-3	8.0	-1%	2	2%
Cc1cccc(NC(=O)CNC(=O)COC(=O)c2ccco2)c1C	24%	1.4%	1	·	·	-5	12%
CC12C=CC3(O1)C(C(=O)N(c1cccnc1)C3C(=O)NC1CCCCC1)C2C(=O)Nc1ccccc1 (stereo not given)	-7%	-1.0%	-24	-0.8	13%	1	5%
CSc1nc(O)c(C(c2cccc([N+](=O)[O-])c2)c2c(O)nc(SC)[nH]c2=O)c(=O)[nH]1	-17%	-2.7%	-21	1.2	-6%	17	7%
O=C(COc1ccc(Br)cc1)NCCCn1ccnc1	-12%	0.8%	-2	-4.5	-4%	-1	11%
COc1ccccc1-c1cc(-c2ccc(O)cc2)nc(N)c1C#N	?	3.6%	3	-6.5	-6%	12	5%
CC(C)(C)NC(=O)C(=O)NNC(=O)c1cccc(Br)c1	-4%[15.4 µM]	·	-2	-0.9	-15%	-1	·
Cc1ccc(NC2CCCN(C(=O)CCc3cn[nH]c3)C2)cc1C (stereo not given)	-1%	-3.5%	9	-4.4	7%	17	0%
O=C(CN(CC1CCCO1)C(=O)CNS(=O)(=O)c1ccccc1)NCc1ccccc1 (stereo not given)	-32%[inhibitor]	0.9%	-26	4.9	15%	·	6%
O=S(=O)(c1cccc(-c2nnc(SCc3nc4ccccc4s3)o2)c1)N1CCOCC1	-6%[15.4 µM]	28µM*	-4	17	-5%	1	1%
C=CC[C@H](CC(=O)NCCO)C(=O)NCCOC(=O)[C@@H](CC=C)Cc1ccc(F)cc1	·	1.8%	2	·	·	·	5%
Cn1c(=O)[nH]c(=O)c2c1nc(N1CCN(Cc3ccccc3)CC1)n2CCCc1ccccc1	0%	-1.4%	-22	5.2	-8%	11	0%
COc1ccc(C)cc1S(=O)(=O)Nc1ccc(F)c(Cl)c1	-28%	0.1%	28	0.3	6%	3	-11%
O=C(CC(CC(=O)c1ccc(Br)cc1)c1cccnc1)c1ccc(Br)cc1	1%	·	-5	-1.2	-1%	-2	3%

Remaining list, next part:
SMILES	gsp agonist	ClpP mod	D2 PAM	Menin MLL FP FL	Sfp inh	TRPV1 PAM	gsp antagonist
O=C(Nc1ccc2c(c1)OCCO2)c1cc(-c2ccccc2)nc2ccccc12	-10%	-8.3%	-8	1.0	13%	-13	-12%
O=C(CNC(=O)[C@@H]1Cc2ccccc2CN1)NCc1ccco1	3%	-2.2%	-4	6.1	1%	0	-11%
COc1ccc(Cl)cc1/C=C(\C#N)C(N)=O	?	-11%	-18	2.3	-16%	8	-8%
Cc1ccc(S(=O)(=O)N2CCN(C(=O)COC(=O)COc3ccc(Br)cc3)CC2)c(C)c1	-52%[inhibitor]	-1.4%	-4	·	·	·	14%
COc1cccc(-n2c(COc3ccc(C)cc3)nnc2SCC(=O)O)c1	-23%	0.4%	-19	0.2	-9%	0	-2%
CCOC(=O)C1=C(C)NC(C)=C(C(=O)OCC)C1C(=O)OCC(=O)N1CCC(C)CC1	-6%[15.4 µM]	-1.3%&-8.5%	-16&-29	-1.3	21%	2	-1%&3%
Nc1nc(SCC(=O)N2CCCc3ccccc32)n(-c2ccccc2)n1	-6%	-0.1%	0	2.4	-3%	7	3%
O=c1[nH]nc(-c2ccccc2)c2ccccc12	0%[15.4 µM]	·	1	5.1	18%	-5	9%
O=C(Nc1ccc2c(c1)Cc1ccccc1-2)c1cc2ccccc2o1	-7%	-3.9%	-2	·	·	·	15%
Cn1cnc(NCc2ccccc2)c1[N+](=O)[O-]	1%	-1.6%	-18	-1.7	-1%	4	-5%
O=C(O)c1cccc(C(=O)Nc2cccc(NC(=O)C3CCCO3)c2)c1 (stereo not given)	-4%	0.3%	-15	3.7	4%	12	31%
COc1ccc(C2=NCCn3nc4cc(C(F)(F)F)ccc4c32)cc1	-15%	0.6%	-9	·	·	25	-1%
O=C(Nc1nnc(-c2ccc(F)cc2)s1)c1c(F)cccc1Cl	?	-4.5%	-2	1.7	11%	?	-4%
Cc1cccc(S(=O)(=O)CC(=O)Nc2nc(-c3ccccc3)cs2)c1	-20%	-1.1%	1	-0.1	7%	24	-2%
COc1ccc([C@H]2CC(=O)C=C(c3ccc(Cl)c(Cl)c3)C2)cc1	-35%[inhibitor]	-3.2%	-5	·	·	8	1%

New compounds follow:
SMILES	gsp agonist	ClpP mod	D2 PAM	Menin MLL FP FL	Sfp inh	TRPV1 PAM	gsp antagonist
Cc1ccc2[nH]c(=O)c(CN(Cc3cccnc3)Cc3nnnn3CC3CCCO3)cc2c1 (stereo not given)	30%	-25%	-6	-1.1	8%	-4	-4%
O=S(=O)(c1cccc(-c2nc3ccccc3s2)c1)N1CCOCC1	15%	?	-10	4.9	-3%	-11	10%
CCOc1ccc(N2CC(C(=O)Nc3ncccc3C)CC2=O)cc1 (stereo not given)	-48%[inhibitor]	18µM*	15	1.9	-2%	-2	15%
COCc1cc(C)n(CC(=O)Nc2ccc3c(c2)OCO3)c(=O)c1C#N	5%	·	8	·	7%	-5	-1%
O=C(NC(=S)NCCc1ccccc1)c1ccccc1	-26%	-0.6%	-16	-0.3	4%	-16	-6%
CCCCCCCCCCNC(=O)CCn1[nH]c(=O)c2ccccc2c1=O	-1%	-3.2%	-7	·	·	·	-3%
COc1ccc(NC(=O)CN(C)C(=O)c2cc(-c3ccc(OC)cc3)nc3ccccc23)cc1	-24%[15.4 µM]	·	-9	·	·	1	?
CCN(CC)CCCNc1nc2ccccc2c2nc(-c3ccncc3)nn12	-16%[15.4 µM]	·	-5	-9.4	12%	8	4%
N/C(=N\OC(=O)CCCOc1ccccc1)c1cccc(Br)c1	6%[15.4 µM]	-1.0%	-1	-2.2	3%	3	5%
CC(=NNC(=S)N1CCC1)c1ccccn1	19%	-21%	20	·	·	·	5%
COc1ccc(-c2ccc(-c3nnc(-c4cc(OC)ccc4OC)o3)cc2)cc1	19%	16µM*	-2	1.1	19%	1	13%
CC(C)N(C(=O)CSc1nnc(NC(=O)C2CCC2)s1)C(C)C	-4%	-0.2%	-20	1.8	-7%	-4	-6%
CCc1ccc(NC(=O)Cc2c(C(=O)O)n(C)c3ccccc23)cc1	0%	·	-3	-3.0	15%	2	-3%
O=C(Nc1ncccc1O)c1ccc(S(=O)(=O)Nc2ccccc2)cc1	7%[15.4 µM]	·	0	·	·	20	-3%
O=C(/C(=C(\[O-])c1ccccc1)[n+]1ccc2ccccc2c1)c1ccc(Cl)cc1	-11%[15.4 µM]	1.8%	2	-2.0	-13%	0	-7%
O=C(Nc1ccccc1-c1nc2ccccc2s1)C1=COCCO1	?	45%	-8	-8.6	-24%	-9	-5%
CC(C)c1ccccc1NC(=O)COC(=O)c1c2c(nc3ccccc13)CCN(Cc1ccccc1)C2	8%	-15%	27	6.5	-7%	-4	-1%

Screening results as filed in PubChem BioAssay.
